VACV Venus inh: inhibitors of vaccinia virus (Venus reporter). Vaccinia virus Venus reporter expression, fluorescence. 330,000 tested, 0.46% active. Potency, µM (doses to about 36.5 µM), for the others: at the highest dose activity change, negative = inhibition, actives largely listed as inhibitors; active means well fitted inhibition curve with a large enough effect; inconclusive means small, poorly fitted or top-dose-only effect; inactive means no such curve, though single readings can be large or run the other way; tested in A549 cells; note: nearly all actives have a fitted effect of over 30% in size; inactives centre near -10
VACV mCherry inh: inhibitors of vaccinia virus infection (mCherry reporter signal) | 310,000 tested, 0.63% active | Vaccinia virus mCherry reporter infection, fluorescence; about a quarter of the inactives have no number | AID 720579 | Potency, µM (highest dose often 36.5 µM), for the others: at the top dose activity change, negative = inhibition, actives largely listed as inhibitors; active = well fitted inhibition curve with a large enough effect; inconclusive = small, poorly fitted or top-dose-only effect; inactive = no such curve, though single readings can be large or run the other way; tested in A549 cells; note: nearly all actives have a fitted effect of over 35% in size; inactives centre near -10
* marks the source's active call; other numbers are inactive results; i = inactive; u = inconclusive; x = not tested or not shown; & = joins results of further samples; [ ] = another dose, or the depositor's remark. % is set by controls: 0 for no effect and ±100 for the full control effect; potency is the fitted concentration of half-maximal effect.

Start of the data: the first 7 compounds (preview)
cpd | smiles | VACV Venus inh | VACV mCherry inh
1 | CCOC(=O)N1CCN(C(=S)NC(=O)c2ccnn2C)CC1 | 5.0% | -3.9%
2 | Cc1ccc(-c2onc(C)c2C)cc1S(=O)(=O)N1CC(C)Oc2ccccc21 (centres undefined) | -7.1%[7.34 µM] | -5.8%[7.34 µM]
3 | Cc1ccc(NC(=O)O/N=C/c2ccc(N(C)C)cc2)cc1 | -11.5% | -13.8%
4 | COC(=O)c1ccc(-c2c(-c3ccccc3)ncc3cc(F)ccc23)cc1 | -5.9% | -13.8%
5 | O=C(c1c(F)c(F)c(F)c(F)c1F)N(Cc1ccccc1)Cc1ccccc1 | u | u
6 | COc1ccc(-c2csc3ncnc(NCCCO)c23)cc1 | -9.5% | i
7 | Oc1ccccc1Nc1nc2ccccc2n2nnnc12 | 25.7% | -6.4%

This part in full, previewed entries included:
cpd | smiles | VACV Venus inh | VACV mCherry inh
1 | CCOC(=O)N1CCN(C(=S)NC(=O)c2ccnn2C)CC1 | 5.0% | -3.9%
2 | Cc1ccc(-c2onc(C)c2C)cc1S(=O)(=O)N1CC(C)Oc2ccccc21 (centres undefined) | -7.1%[7.34 µM] | -5.8%[7.34 µM]
3 | Cc1ccc(NC(=O)O/N=C/c2ccc(N(C)C)cc2)cc1 | -11.5% | -13.8%
4 | COC(=O)c1ccc(-c2c(-c3ccccc3)ncc3cc(F)ccc23)cc1 | -5.9% | -13.8%
5 | O=C(c1c(F)c(F)c(F)c(F)c1F)N(Cc1ccccc1)Cc1ccccc1 | u | u
6 | COc1ccc(-c2csc3ncnc(NCCCO)c23)cc1 | -9.5% | i
7 | Oc1ccccc1Nc1nc2ccccc2n2nnnc12 | 25.7% | -6.4%
8 | COc1cc(C(c2sc3nc(C)nn3c2O)N2CCc3ccccc3C2)cc(OC)c1OC (centres undefined) | -10.4% | -18.4%
9 | COc1ccc(N(C)S(=O)(=O)c2ccc3c(c2)CCN3C(=O)CCC(=O)O)cc1 | -0.8% | -0.5%
10 | COC(=O)c1ccc(CSc2nc3c([nH]c4ccccc43)c(=O)n2-c2ccc(Cl)cc2)o1 | -11.4% | -10.1%
11 | CCCCNc1nc2c(c(=O)[nH]c(=O)n2C)n1CCCc1ccccc1 | -22.2% | u
12 | Cc1ccc(S(=O)(=O)c2c(C)nn(C(C)(C)C)c2OC(=O)c2ccco2)cc1 | u | x
13 | O=C(C[N+]12CCN(CC1)CC2)NCCc1ccc(Cl)cc1Cl | -1.9% | -17.0%
14 | CC1(C)OC(c2ccccc2)=C/C(=C/C=Nc2ccccc2)O1 | 8.9% | -5.7%
15 | Cc1cc(NC(=O)CCN2C(=O)/C(=C\c3ccccc3)SC2=S)no1 | -3.0% | u
16 | Brc1c(CSc2nncn2-c2ccccc2)nc2ncccn12 | -2.6% | -12.1%
17 | Cc1ccc(S(=O)(=O)N2CCCC2C(=O)NCCc2ccccc2)cc1 (centres undefined) | -18.2% | -9.0%
18 | CCCCC(C)(C)[C@H](O)/C=C/[C@H]1[C@H](O)CC(=O)[C@@H]1C/C=C\CCCC(=O)O | -4.3%[3.33 µM] | -8.6%[3.33 µM]
19 | NC(=O)c1c(Br)n(C2OC(CO)C(O)C2O)c2ncnc(N)c12 (centres undefined) | u | 11.2µM*
20 | Cc1ccccc1C(=O)NCc1nnc(SCC(=O)N2CCN(c3ccccc3)CC2)n1C | -7.1% | -12.1%
21 | CCOc1ccc(NC(=O)c2cc(=O)c3cc(CC)ccc3o2)cc1 | 1.7% | -4.4%
22 | Cc1csc2c(N3CCN(S(=O)(=O)c4ccc(Cl)cc4)CC3)ncnc12 | -9.0% | -15.5%
23 | O=C(COC(=O)c1ccc(Br)c(S(=O)(=O)N2CCOCC2)c1)NCC1CCCO1 (centres undefined) | -7.0% | x
24 | CCCn1c(SCC(=O)N2CCN(C(=O)c3ccco3)CC2)nc2ccccc2c1=O | -11.4% | i
25 | CCN(CC)CCOC(=O)c1cccc(Cl)c1 | -7.6% | x
26 | COc1ccc(N2CCN(S(=O)(=O)c3cc4c(cc3C)NC(=O)CO4)CC2)cc1 | -20.3% | -24.7%
27 | O=S(=O)(Nc1cccc(Cl)c1)c1ccc2[nH]c3c(c2c1)CCCCCC3 | -20.8% | u
28 | COC(=O)/C(=C\c1cc(OC)c(OC)c(OC)c1)c1nc2ccccc2[nH]1 | -10.9% | -20.2%
29 | CN(CC(=O)NCc1ccncc1)S(=O)(=O)c1ccccc1 | 0.0% | -3.2%
30 | COC(=O)c1cc(NC(=O)CCc2c(C)nc3cc(-c4ccccc4)nn3c2C)cc(C(=O)OC)c1 | 2.6% | -3.0%
31 | Nc1nc(CN2CCN(C(c3ccccc3)c3ccccc3)CC2)nc(Nc2ccccc2)n1 | -11.7% | -28.9%
32 | CCN(CC)S(=O)(=O)c1ccc(N/N=C(\C)c2ccc3c(c2)OCO3)c([N+](=O)[O-])c1 | -6.6% | -13.9%
33 | Cc1cc(C)c(Cn2c3ccccc3c3cnn(CC(=O)NC4CCCCCC4)c(=O)c32)c(C)c1 | 1.3% | -7.3%
34 | C[C@H]1CN([C@@H](C)CO)C(=O)CCCn2nncc2CO[C@@H]1CN(C)Cc1ccncc1 | -14.5% | -11.8%
35 | COc1ccccc1N1CC(C(=O)Nc2nnc(SCc3ccccn3)s2)CC1=O (centres undefined) | 1.9% | -11.1%
36 | Fc1c(F)c(C(F)(F)F)c(F)c(F)c1N/N=C\c1cccs1 | u | u
37 | CC(NC(=O)c1ccc(CS(C)(=O)=O)cc1)c1cccc2ccccc12 (centres undefined) | -6.5% | -1.2%
38 | COC(=O)/C=C/c1ccc2c(c1)S(=O)(=O)N(C1CCCC1)[C@H]2CC(=O)OC | -11.9% | i
39 | COc1ccc(-c2cc(=O)oc3cc(OC(=O)C4CCCCC4)ccc23)cc1 | -16.1% | i
40 | CCc1cc(/C(Cc2cscn2)=N\O)c(O)cc1O | -24.5% | -26.4%
41 | Nc1c(C(=O)Nc2ccc3c(c2)OCCO3)nnn1Cc1ccccc1 | -14.6% | -26.5%
42 | COc1ccc(-c2cn(CCc3c[nH]c4ccccc34)nn2)cc1 | u | u
43 | Cc1ccc(C)c(NS(=O)(=O)c2cc3c(cc2C)n(C)c(=O)c(=O)n3C)c1 | -8.3% | -5.3%
44 | CCOc1ccccc1-c1noc(CCC(=O)NC2CCCCC2)n1 | 9.8% | -6.4%
45 | C[C@H](CO)NC(=O)[C@H](C)[C@@H]1C[C@@]1(C)[C@@H](NC(=O)OCc1ccccc1)c1ccccc1 | -10.7% | i
46 | COc1ccc(-c2nsc(SCC(=O)Nc3cc(C)on3)n2)cc1 | u | -6.8%
47 | COc1ccc(NC(=O)C(NS(=O)(=O)c2cccc3nsnc23)C(C)C)cc1OC (centres undefined) | -3.0% | -16.1%
48 | CCOC(=O)C1CCN(CC(=O)Nc2c(C(=O)OC)[nH]c3ccc(Cl)cc23)CC1 | -5.4% | -0.5%
49 | CN(CCc1ccccc1)c1cc2c(c3c1ccn3C)C1CCC2C1 (centres undefined) | 5.7% | 27.3%
50 | CCCNC(=O)C1(C)CCCN(Cc2cccc(Oc3ccccc3)c2)C1 (centres undefined) | -3.2% | -0.3%
51 | COc1ccc(OCc2ccc(-c3nc(C#N)c(N4CCCCC4)o3)o2)cc1 | -10.2% | -10.7%
52 | NS(=O)(=O)c1ccc(CCNC(=O)c2cc([N+](=O)[O-])ccc2N2CCCCC2)cc1 | -2.2% | -3.2%
53 | Cc1cccc(CN(C)C[C@@H]2OCc3cnnn3CCCC(=O)N([C@H](C)CO)C[C@H]2C)c1 | -8.2% | i
54 | CSc1ncc(Cl)c(C(=O)Nc2ccc(S(=O)(=O)Nc3nccc(C)n3)cc2)n1 | u | -19.2%&-22.0%
55 | Cc1ccc(C)c2c1cc(C)c1nnc(SCC(=O)NCc3ccc4c(c3)OCO4)n12 | -12.7% | -9.8%
56 | C#CCOCCOCCOCCNc1nc(N2CCOCC2)nc(N2CCN(C(=O)[C@H]([C@@H](C)CC)n3cc([C@@H](N)Cc4ccc(O)cc4)nn3)CC2)n1 | -10.6% | i
57 | CSc1cccc(N2C(=O)C3CCCN3C2=S)c1 (centres undefined) | -2.1% | -1.9%
58 | CCOC(=O)c1ccc(NC(=S)N2CCN(Cc3ccccc3)CC2)cc1 | -18.2% | i
59 | CS(=O)(=O)c1ccc(-c2nnc(NC(=O)c3ccc(S(=O)(=O)N4CCCC4)cc3)o2)cc1 | -10.1% | i
60 | CC1CC(NC(=O)c2cc3c(=O)n4ccccc4nc3n2C)CC(C)(C)C1 (centres undefined) | -19.9% | -5.1%

Additional entries follow.
cpd | smiles | VACV Venus inh | VACV mCherry inh
61 | CCOC(=O)[C@@H](CCc1ccccc1)N[C@H](C)C(=O)N1[C@H](C(=O)O)C[C@@H]2CCC[C@@H]21 | -16.2% | -6.8%
62 | Cc1ccccc1OCC(=O)Nc1ccc(S(=O)(=O)N2CCOCC2)cc1 | -8.2% | -12.0%
63 | COc1ccc(CCNC(=O)COC(=O)c2cccs2)cc1OC | -10.2% | i
64 | O=C(CCc1nnc(COc2ccccc2)o1)NCCc1cccs1 | -6.6% | i
65 | Cc1cc(C)nc(NC(=O)c2ccc(COc3ccccc3Cl)cc2)c1 | -25.2% | i
66 | Cc1nnc(NC2=NCCC2)o1 | 2.4% | -11.0%
67 | COc1cc(F)ccc1-c1cc(C(=O)NCc2cccs2)[nH]n1 | -0.4% | -3.3%
68 | Cc1cc(C(=O)CSc2nc(N)cc(=O)[nH]2)c(C)n1CCc1ccc(F)cc1 | u | i[1.46 µM]
69 | CCOc1ccc(-n2c(SCC(=O)Nc3ccc(Br)cc3)nc3n[nH]c(C)c3c2=N)cc1 | u | -24.6%
70 | CC(=O)NCCNC(=O)C1(C)Cc2c(-c3cccc(C(N)=O)c3)ccnc2O1 (centres undefined) | -5.8% | 13.3%
71 | OC(c1ccccc1)C(NCCNCc1ccccc1)c1ccccc1 (centres undefined) | -8.6% | i
72 | Cc1cccc2cc(COC(=O)c3cccs3)c(=O)[nH]c12 | -13.1% | -20.2%
73 | O=C(Nc1ccc(F)cc1)c1cc(-c2ccccc2)no1 | -8.1% | i
74 | CCCc1nnc(SCC(=O)Nc2ccc(OCC)cc2)n1N | -10.0% | x
75 | Cc1c(S(=O)(=O)N2CCN(c3cccc(Cl)c3)CC2)c(=O)n(C)c(=O)n1C | -10.8% | -1.8%

Rewritten as labelled records: part of the list above.
[64] O=C(CCc1nnc(COc2ccccc2)o1)NCCc1cccs1
  VACV Venus inh: -6.6% | VACV mCherry inh: i
[61] CCOC(=O)[C@@H](CCc1ccccc1)N[C@H](C)C(=O)N1[C@H](C(=O)O)C[C@@H]2CCC[C@@H]21
  VACV Venus inh: -16.2% | VACV mCherry inh: -6.8%

The list continues:
cpd | smiles | VACV Venus inh | VACV mCherry inh
76 | O=C(Cc1c(F)cccc1Cl)Nc1nccs1 | -9.4% | i
77 | O=C(CSc1nc2c(c(=O)[nH]1)CCCC2)Nc1ccc(Br)cc1 | -3.1% | -9.0%
78 | CC(=NCc1ccco1)c1c(O)n(-c2ccc(Cl)cc2)c(=O)[nH]c1=O | -0.7% | -3.5%
79 | Cc1cc(C(c2ccc(C)o2)c2ccc(C)o2)c(O)c([N+](=O)[O-])c1 | -11.1% | -17.8%
80 | N#CC1=C(N)Oc2cc(N)ccc2C1c1cccc(F)c1 (centres undefined) | -17.8% | u
81 | O=C(NCCc1ccccc1)C(=O)Nc1ccc2c(c1)OCCO2 | -5.0% | -12.0%
82 | COc1cccc(NC(=O)C(c2ccccc2)N2CCCC2)c1 (centres undefined) | -8.5% | i
83 | O=C(NCCCN1CCCC1=O)c1cccc(N2CCCC2=O)c1 | 5.5% | -11.2%
84 | COC(=O)c1c(C)[nH]c(C(=O)OCc2ccc(F)cc2)c1C | -17.6% | x
85 | Cc1ccc(Cn2c(=O)n(Cc3ccco3)c(=O)c3sc4ccccc4c32)cc1 | -6.9% | -9.6%
86 | Cc1cc(NC(=O)Nc2nc3c(s2)CCCCCC3)ccc1Br | -24.7% | i
87 | Cc1cccc2c1CC(C)(C)NC2=C(C#N)C#N | -3.1% | -8.0%
88 | O=C(NCc1ccccc1)C(c1ccc(F)cc1)N(C(=O)c1csnn1)C1CC1 (centres undefined) | -4.2% | -11.4%
89 | COc1ccccc1N=C(C)C1=C(O)CSC1=O | -1.6% | x
90 | Cc1c(NC(=S)N/N=C/c2ccc(O)cc2)c(=O)n(-c2ccccc2)n1C | -3.6% | -17.8%
91 | CC[C@]12c3[nH]c4ccccc4c3CCN1C(=O)C(CC(=O)NCCC1=CCCCC1)C[C@@H]2C(=O)N1CCN(C(=O)C2CC2)CC1 (some centres undefined) | u | i
92 | CC(C)(C)OC(=O)NCCCC[C@H](NC(=O)c1nc[nH]c1C(=O)N1CCN(C(=O)OC(C)(C)C)CC1)C(=O)OC(C)(C)C | -10.7% | i

Screening results as filed in PubChem.

Outcome played no part in choosing rows (roughly 0.87% active in at least one column).
